High-throughput results as filed in PubChem.
Marburg entry inh – blocks Marburg virus binding to or entry into cells; actives 1.8% (n = 300,000); Potency, µM (top dose mostly 37.8 µM), inactives show top-dose activity change, negative = inhibition, usual class: inhibitors; Marburg virus pseudotyped entry inhibition, cell reporter; control for the full effect not named in the record; about a third of the inactives were read at about 46 µM; AID 540276; active = well fitted inhibition curve with a large enough effect; inconclusive = small, poorly fitted or top-dose-only effect, or effect the other way; inactive = flat fitted curve, though single readings scatter; tested in HEK293 cells; about a fifth of its hits are not listed in these tables; also: % is scaled to controls: 0 for no effect and ±100 for the full control effect; luciferase read-out
SARS PLP yeast – SARS-CoV PLP inhibition in yeast | S. cerevisiae expressing SARS-CoV PLpro, growth rescue; control for the full effect not named in the record | actives 0.19% (n = 330,000) | Potency, µM (series often up to 32.9 µM), for the others: at the highest dose activity, positive = growth rescue; active means well fitted rising curve with a large enough effect; inconclusive means small, poorly fitted or top-dose-only effect; inactive means no such curve, though single readings can be large or run the other way; also: 0% is about no effect; nearly all actives have a fitted effect of over 55% in size; growth read by luminescence after 48 h
Cruzain noTriton – blocks cruzain activity in detergent-free assay; Potency, µM, inactives show max response, negative = inhibition, most hits filed as inhibitors; purified cruzain, Z-FR-AMC fluorescence, no detergent; actives 2.3% (n = 200,000);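 also: plate controls were enzyme without inhibitor for no effect and buffer without enzyme for full effect; nearly all actives have a fitted effect of over 40% in size; top concentration of the series not given in the record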
Target sequence (P25779 123-467 limits assumed): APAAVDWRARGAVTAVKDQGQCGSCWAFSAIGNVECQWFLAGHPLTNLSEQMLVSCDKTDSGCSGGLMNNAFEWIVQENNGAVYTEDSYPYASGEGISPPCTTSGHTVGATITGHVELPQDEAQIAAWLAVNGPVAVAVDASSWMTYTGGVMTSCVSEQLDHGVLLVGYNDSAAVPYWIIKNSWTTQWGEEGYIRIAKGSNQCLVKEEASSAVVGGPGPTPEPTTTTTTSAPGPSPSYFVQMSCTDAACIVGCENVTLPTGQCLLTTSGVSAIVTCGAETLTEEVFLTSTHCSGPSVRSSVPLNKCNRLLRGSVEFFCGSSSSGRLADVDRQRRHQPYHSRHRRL
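Purified cruzain at 1.5 nM, pre-incubated 15 min with compound at room temperature in 100 mM sodium acetate pH 5.5, 5 mM DTT, 0.00005% Triton X-100. Reaction started with 2 uM Z-FR-AMC; AMC fluorescence increase over 60 s gives rate.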
RE007 growth inh – less growth of the S. pombe RE007 Vpr strain | actives 0.21% (n = 360,000) | Potency, µM (titrated, usually from 92.2 µM), for inactives: at the highest dose activity change, negative = less growth | S. pombe RE007 Vpr strain, BacTiter-Glo ATP luminescence, 24 h; control for the full effect not named in the record; active = well fitted falling curve with a large enough effect; inconclusive = small, poorly fitted or top-dose-only effect; inactive = no such curve, though single readings can be large or run the other way;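 also: % is scaled to controls: 0 for no effect and ±100 for the full control effect; nearly all actives have a fitted effect of over 50% in size; the assay follows cell death caused by Vpr and the record does not say whether a fall means rescue or toxicity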
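Fission yeast RE007 carrying one integrated HIV-1 vpr copy, seeded at OD 0.01 in PMG+AL medium with 23 nL pinned compound. Grown 24 h at 30 degrees; viability read by BacTiter-Glo luminescence after 5 min.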
Lassa entry inh – inhibitors of Lassa virus binding or cell entry. Potency, µM (highest dose often 37.9 µM), inactives show at the highest dose activity change, negative = inhibition, most hits filed as inhibitors. Lassa virus pseudotype entry inhibition, cell reporter; control for the full effect not named in the record. actives 1.2% (n = 300,000). AID 540256; active means well fitted inhibition curve with a large enough effect; inconclusive means small, poorly fitted or top-dose-only effect, or effect the other way; inactive means flat fitted curve, though single readings scatter; tested in HEK293 cells; also: % is scaled to controls: 0 for no effect and ±100 for the full control effect; nearly all actives have a fitted effect of over 50% in size; luciferase read-out
Cruzain inh Det – inhibitors of Trypanosoma cruzi cruzain with detergent. actives 0.43% (n = 200,000). purified cruzain, Z-FR-AMC fluorescence, 0.01% Triton. Potency, µM, without a hit: max response, negative = inhibition, actives largely listed as inhibitors. P25779;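 also: plate controls were neutral wells for no effect and buffer without enzyme for full effect; nearly all actives have a fitted effect of over 40% in size; top concentration of the series not given in the record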
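Z-FR-AMC hydrolysis (2 uM substrate) by cruzain (1.5 nM) monitored kinetically at ex 360/em 450 nm after 15 min room-temperature compound exposure; 0.01% Triton X-100, pH 5.5, 5 mM DTT.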
NS1 inh – influenza NS1 inhibition; S. cerevisiae slowed by influenza A NS1, growth recovery by OD600; Potency, µM (highest dose often 46.1 µM), for the others: at the top dose activity, positive = more growth; actives 0.4% (n = 270,000); active means well fitted rising curve with a large enough effect; inconclusive means small, poorly fitted or top-dose-only effect; inactive means no such curve, though single readings can be large or run the other way; also: nearly all actives have a fitted effect of over 50% in size
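S. cerevisiae expressing influenza A NS1, grown in glucose, washed, then diluted 1:100 into pH 6.0 -URA galactose medium with 23 nl compound. Growth recovery read as OD600; NS1-free strain serves as control.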
StopGo reporter – FMDV 2A StopGo reporter, luciferase signal; actives 1.2% (n = 410,000); AID 1159524; human cells with a luciferase reporter of 2A StopGo recoding; control for the full effect not named in the record; Potency, µM (highest dose often 57.9 µM), inactives show top-dose signal change, negative = less light; active = well fitted falling curve with a large enough effect; inconclusive = small, poorly fitted or top-dose-only effect; inactive = no such curve, though single readings can be large or run the other way; tested in HEK293T cells; also: % is scaled to controls: 0 for no effect and ±100 for the full control effect; nearly all actives have a fitted effect of over 45% in size; luciferase light after 4 h
* hit, by the source's call; [ ] = another dose, or the depositor's remark. Unless noted, calls follow the shape of the dose curve; as a rule, active = well fitted curve in the direction sought with a large enough effect; inconclusive = small, poorly fitted or top-dose-only effect, or another doubt; inactive = no such curve, though single readings can be large; an effect the other way counts as inactive or inconclusive. Potency is read from the fitted curve at half-maximal effect.

Results for Cc1sc2c(c1C)c(=O)n(-c1ccc(Cl)cc1)c(=O)n2Cc1c(F)cccc1Cl ?
Marburg entry inh: -22.4%[46.1 µM]; Cruzain noTriton: 1.3%; Lassa entry inh: 13.1%[46.1 µM]; Cruzain inh Det: 0.6%; StopGo reporter: -10.1%

Results for CC(C)(C)C(=O)N1CCN(c2ccc([N+](=O)[O-])c(-n3nc(-c4ccccc4)c4ccccc4c3=O)c2)CC1 ?
Marburg entry inh: -2.4%; SARS PLP yeast: 1.2%; Cruzain noTriton: 25.7%; RE007 growth inh: 3.1%; Lassa entry inh: -7.4%; Cruzain inh Det: -4.4%; NS1 inh: inconclusive; StopGo reporter: -10.8%

What do the screens show for `Cc1cc(C)nc(NS(=O)(=O)c2ccc(NC(=S)NC(=O)c3cccnc3)cc2)n1`?
Marburg entry inh: 2.2%[46.1 µM]; SARS PLP yeast: 0.9%; RE007 growth inh: -16.0%; Lassa entry inh: -0.1%; NS1 inh: 3.9%; StopGo reporter: 117.8%[activator]

What do the screens show for `Cc1cccc(-n2c(SCC(=O)N3CCC(C(=O)O)CC3)nc3ccccc3c2=O)c1C`?
Marburg entry inh: -12.5%[46.1 µM]; SARS PLP yeast: 3.2%; RE007 growth inh: 19.8%; Lassa entry inh: 6.6%[46.1 µM]; NS1 inh: 28.4%; StopGo reporter: -12.8%

What do the screens show for `CN(CC(=O)NCCc1ccc(S(N)(=O)=O)cc1)Cc1c(F)cccc1Cl`?
Marburg entry inh: 0.2%[46.1 µM]; SARS PLP yeast: -2.9%; RE007 growth inh: -1.3%; NS1 inh: 13.6%; StopGo reporter: -4.2%

What do the screens show for `O=C(COC(=O)c1ccccc1)Nc1ccc2[nH]c(=O)[nH]c2c1`?
Marburg entry inh: 18.1%[46.1 µM]; SARS PLP yeast: 1.0%; RE007 growth inh: 3.6%; Lassa entry inh: -12.6%; StopGo reporter: -18.0%

What do the screens show for `COc1ccc(/C=C2\SC(N3CCCCC3)=NC2=O)cc1`?
SARS PLP yeast: -2.3%; RE007 growth inh: -9.7%; NS1 inh: 6.2%; StopGo reporter: 59.5%[activator]

What do the screens show for `Cc1ccc(OCC(=O)Nc2ccc3c(c2)C(=O)NC3=O)cc1`?
SARS PLP yeast: 2.0%; RE007 growth inh: 2.0%; NS1 inh: 6.0%; StopGo reporter: 17.9%

What do the screens show for `O=C(CSc1nc(-c2ccc(F)cc2)cc(C(F)(F)F)n1)NCc1ccccc1`?
Marburg entry inh: inconclusive; Cruzain noTriton: -1.4%; Lassa entry inh: inconclusive; Cruzain inh Det: -0.2%; StopGo reporter: -22.9%

How did S=c1[nH]nc(-c2cccnc2)n1-c1ccccc1 do in these assays?
Marburg entry inh: 9.3%; SARS PLP yeast: 5.4%; Cruzain noTriton: 15.7%; RE007 growth inh: -8.8%; Lassa entry inh: 0.6%; Cruzain inh Det: 5.1%; NS1 inh: 0.2%

Results for COc1cc(C(=O)N/N=C2\CCS(=O)(=O)c3ccc(F)cc32)cc(OC)c1OC ?
Marburg entry inh: -7.0%; SARS PLP yeast: -9.0%; Cruzain noTriton: -2.9%; RE007 growth inh: -10.1%; Lassa entry inh: -9.5%; Cruzain inh Det: -5.8%; NS1 inh: -6.3%; StopGo reporter: 0.0%

What do the screens show for `Cc1cccc(-c2nc3c4ccccc4nc(NCc4ccccc4Cl)n3n2)c1`?
Marburg entry inh: 10.8%[46.1 µM]; Cruzain noTriton: 11.7%; Cruzain inh Det: -1.8%; StopGo reporter: 26.3%

Results for CCOC(=O)C1=C(C)NC2=C(C(=O)CC(C)(C)C2)C1c1ccsc1 (stereo not drawn) ?
Marburg entry inh: -2.8%; SARS PLP yeast: 3.0%[6.58 µM]; Cruzain noTriton: -1.7%; RE007 growth inh: -15.0%; Lassa entry inh: -2.2%; Cruzain inh Det: -2.9%; NS1 inh: 7.2%

Results for CC(NC(=O)CSc1nc(C2CC2)n(-c2ccccc2)n1)c1ccco1 (stereo not drawn) ?
Marburg entry inh: 13.0%; SARS PLP yeast: 3.0%; RE007 growth inh: 1.0%; Lassa entry inh: 21.8%; StopGo reporter: -25.5%

What do the screens show for `NC(=O)C1CCN(c2csc3ccc(F)cc3c2=O)CC1`?
Cruzain noTriton: -0.6%; Lassa entry inh: 29.5%[46.1 µM]; Cruzain inh Det: -2.2%; StopGo reporter: 50.9%[activator]

How did Cc1ccc(-c2cc(C(=O)N/N=C/c3ccco3)n[nH]2)s1 do in these assays?
Marburg entry inh: -2.9%; SARS PLP yeast: 7.0%; Cruzain noTriton: -2.0%; Lassa entry inh: -2.3%; Cruzain inh Det: -10.8%; NS1 inh: 10.2%; StopGo reporter: 17.2%

What do the screens show for `COc1cccc(-c2cc(C(F)(F)F)n3ncc(S(=O)(=O)c4ccccc4)c3n2)c1`?
Marburg entry inh: -0.6%; SARS PLP yeast: -4.3%; Cruzain noTriton: -24.5%; RE007 growth inh: 13.9%; Lassa entry inh: 3.3%; Cruzain inh Det: -7.8%; NS1 inh: 14.6%; StopGo reporter: -2.5%

Results for O=C(CN1CCN(CC(=O)c2ccccc2)CC1)c1ccccc1 ?
Marburg entry inh: inconclusive; RE007 growth inh: -0.5%; Lassa entry inh: -13.9%[46.1 µM]; StopGo reporter: -0.1%

How did CC12CN3CC(C)(CN(C1)C3c1ccco1)C2=O (stereo not drawn) do in these assays?
Marburg entry inh: 1.0%[46.1 µM]; SARS PLP yeast: inconclusive; Cruzain noTriton: -16.8%; RE007 growth inh: -8.0%; Lassa entry inh: 11.3%; Cruzain inh Det: -0.9%; NS1 inh: -8.2%; StopGo reporter: inconclusive

How did COc1ccc(CN2CCN(C(=O)c3cc(OC)c(OC)c(OC)c3)CC2)cc1OC do in these assays?
Marburg entry inh: 4.7%; SARS PLP yeast: -19.1%; Cruzain noTriton: -5.1%; RE007 growth inh: 13.1%; Lassa entry inh: 4.0%; Cruzain inh Det: -0.8%; NS1 inh: -3.6%; StopGo reporter: 11.4%

How did CC(=O)C(Sc1ncnc2sc3c(c12)CCCC3)C(C)=O do in these assays?
Marburg entry inh: inconclusive; SARS PLP yeast: -0.1%; RE007 growth inh: inconclusive; Lassa entry inh: -20.2%[46.1 µM]; StopGo reporter: -11.5%

Results for Cc1cc(C)c2oc(C(=O)Nc3c(C(=O)c4ccccc4)oc4ccccc34)cc(=O)c2c1 ?
Marburg entry inh: -6.8%[46.1 µM]; Cruzain noTriton: -4.3%; Lassa entry inh: -0.1%[46.1 µM]; Cruzain inh Det: -0.2%; StopGo reporter: -19.2%

What do the screens show for `Cc1ccccc1NC(=S)NNC(=O)c1cccnc1`?
Marburg entry inh: 6.8%; SARS PLP yeast: 17.6%; Cruzain noTriton: -6.5%; RE007 growth inh: -4.9%; Lassa entry inh: 1.8%; Cruzain inh Det: 0.0%; NS1 inh: 19.4%; StopGo reporter: -12.8%

What do the screens show for `O=c1[nH][nH]c(-c2ccccc2)c1C=Nc1ccccc1`?
Marburg entry inh: -20.9%; SARS PLP yeast: -2.8%; Cruzain noTriton: 4.4%; RE007 growth inh: 2.6%; Lassa entry inh: -2.8%; Cruzain inh Det: -3.8%; NS1 inh: 6.1%; StopGo reporter: 5.0%

What do the screens show for `O=c1cc(CSc2nnc(COc3ccccc3Cl)o2)nc2sccn12`?
Marburg entry inh: 4.7%; SARS PLP yeast: -5.2%; Cruzain noTriton: -12.2%; RE007 growth inh: -9.9%; Lassa entry inh: 0.9%; Cruzain inh Det: -1.0%; NS1 inh: -10.0%

What do the screens show for `CCOC(=O)C1=C(C)N(C)C(=O)NC1c1ccc(C)s1` (stereo not drawn)?
Marburg entry inh: 0.4%; SARS PLP yeast: 2.3%; Cruzain noTriton: 2.1%; RE007 growth inh: -2.9%; Lassa entry inh: 32.4%; Cruzain inh Det: -2.1%; NS1 inh: 10.6%; StopGo reporter: 2.9%

What do the screens show for `CCOP(=O)(c1ccccc1)C(O)c1ccccc1` (stereo not drawn)?
Marburg entry inh: inconclusive; SARS PLP yeast: 9.1%; Cruzain noTriton: -11.5%; Lassa entry inh: 4.2%; Cruzain inh Det: 2.6%; NS1 inh: 13.7%; StopGo reporter: 1.2%

What do the screens show for `Brc1cccc2sc(N3CCCC3)nc12`?
Marburg entry inh: 20.1%[46.1 µM]; SARS PLP yeast: -2.8%; RE007 growth inh: 1.2%; Lassa entry inh: 28.7%; StopGo reporter: 33.4%[activator]

Results for CCOC(=O)Cn1c(=O)oc2cc(S(=O)(=O)N3CCN(c4cccc(C)c4)C(C)C3)ccc21 (stereo not drawn) ?
Marburg entry inh: 7.0%[46.1 µM]; Cruzain noTriton: inconclusive; Lassa entry inh: -7.1%[46.1 µM]; Cruzain inh Det: 0.7%; StopGo reporter: 0.0%

Results for Cc1cccc(C)c1NC(=O)CNC(=O)C(C)NC(C)c1ccccc1Br (stereo not drawn) ?
Marburg entry inh: -3.5%; SARS PLP yeast: 1.3%; RE007 growth inh: -6.4%; Lassa entry inh: 1.8%; StopGo reporter: -3.9%

What do the screens show for `COc1cc(NC(=O)Cn2cnc3c(NCc4ccccc4)ncnc32)cc(OC)c1OC`?
Marburg entry inh: 0.0%; SARS PLP yeast: -4.5%; RE007 growth inh: 2.4%; StopGo reporter: -8.8%

How did O=C(Nc1c2c(nc3ccccc13)CCCC2)c1cccc([N+](=O)[O-])c1 do in these assays?
Marburg entry inh: -9.0%; SARS PLP yeast: -4.2%; Cruzain noTriton: -11.8%; RE007 growth inh: -17.8%; Lassa entry inh: inconclusive; Cruzain inh Det: -6.0%; NS1 inh: -12.7%; StopGo reporter: -19.5%

Results for CCc1ccc(N2C(=O)c3ccc4c5c(ccc(c35)C2=O)CC4)cc1 ?
Marburg entry inh: 19.3%[46.1 µM]; SARS PLP yeast: inconclusive; Cruzain noTriton: -4.3%; RE007 growth inh: -0.1%; Lassa entry inh: 22.2%; Cruzain inh Det: 5.2%; NS1 inh: 8.3%; StopGo reporter: 15.9%

Not a hit list, and some 4.6% of all compounds hit somewhere here.
